# Insulin prom inh: TRM-6 insulin promoter activity inhibition. TRM-6 cells (human fetal islet line), insulin promoter-eGFP reporter, imaging; reporter expression induced with tamoxifen. inhibition, % at 2 µM. hit rate 0.9% among 130,000;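 active means inhibition above the mean plus 3 SD, with well images judged a real hit on visual review, cut at about 60% in these data, passing the limit was not always enough; inconclusive means inhibition over the cutoff but images rejected on review; inactive means inhibition not above the cutoff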
# RGS16-Gao: RGS16-Galphao interaction regulator (human) | O15492+P09471 | bead-based flow cytometry RGS16-Galphao binding, fluorescence; actives lie on both sides | binding response (% of control), % at 10 µM | hit rate 0.38% among 220,000 | AID 1441;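 active means below 25% or above 175%, edge rows of some plates excepted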;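 further: Galphao activated by GDP with aluminum fluoride before binding; 100% = wells without compound and 0% = beads without RGS; some results beyond the cut were filed as inactive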
# Target sequence (O15492 whole entry, looked up): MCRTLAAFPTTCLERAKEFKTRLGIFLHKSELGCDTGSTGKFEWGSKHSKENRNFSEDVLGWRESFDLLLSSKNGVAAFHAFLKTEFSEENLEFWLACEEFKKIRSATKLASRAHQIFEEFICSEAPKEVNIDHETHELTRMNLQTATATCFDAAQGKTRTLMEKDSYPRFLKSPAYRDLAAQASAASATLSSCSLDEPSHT
# Target sequence (P09471 whole entry, looked up): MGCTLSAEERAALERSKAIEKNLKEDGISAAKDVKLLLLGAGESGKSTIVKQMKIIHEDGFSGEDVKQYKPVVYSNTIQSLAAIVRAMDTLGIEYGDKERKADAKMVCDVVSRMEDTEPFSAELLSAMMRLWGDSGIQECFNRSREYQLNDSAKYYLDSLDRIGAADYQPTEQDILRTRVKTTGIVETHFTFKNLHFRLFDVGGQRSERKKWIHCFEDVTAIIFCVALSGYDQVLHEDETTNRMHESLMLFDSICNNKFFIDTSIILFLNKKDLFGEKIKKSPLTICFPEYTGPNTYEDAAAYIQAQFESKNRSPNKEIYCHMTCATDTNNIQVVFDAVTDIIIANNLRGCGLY
# HSV replic up: increases HSV replication in cells; hit rate 0.005% among 220,000; maximum fold increase; HSV replication augmentation in cells, fold increase;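 active means peak rise of 1.5-fold or more in the series; inconclusive means self-fluorescent or not available for retest; tested in PC3 cells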;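 further: first round at 10 µM; read as green reporter fluorescence; hits show the peak of a series up to 25 µM; 1 = signal of infected wells without compound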
# GALR2 agonist: GALR2 (human) receptor agonism | O43603 | GALR2-expressing cells, agonist activation read-out | activation, %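 (tested at 5 µM)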 | hit rate 0.48% among 140,000 | AID 803;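 active means above mean plus 3 SD of all compounds, about 5% in these data, not always enough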;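 further: 0% = vehicle buffer wells and 100% = reference agonist at full effect; tested in CHO reporter cells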
# Target sequence (O43603 whole entry, looked up): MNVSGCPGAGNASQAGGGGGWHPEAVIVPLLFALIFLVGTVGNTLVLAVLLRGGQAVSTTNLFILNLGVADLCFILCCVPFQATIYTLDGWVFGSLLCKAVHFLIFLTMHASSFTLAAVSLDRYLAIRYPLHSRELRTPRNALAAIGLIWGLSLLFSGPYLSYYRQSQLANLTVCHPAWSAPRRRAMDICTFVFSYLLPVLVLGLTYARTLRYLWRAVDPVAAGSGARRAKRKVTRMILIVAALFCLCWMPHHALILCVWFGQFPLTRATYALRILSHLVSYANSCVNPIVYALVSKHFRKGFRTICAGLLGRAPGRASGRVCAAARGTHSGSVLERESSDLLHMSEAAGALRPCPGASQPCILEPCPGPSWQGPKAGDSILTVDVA
# PKD1 inh: inhibitors of human PKD1 kinase | PKD1 kinase fluorescence polarization assay | inhibition, %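 (about 10 µM by stock and volumes)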 | hit rate 0.056% among 200,000 | AID 797;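 active means inhibition of 50% or more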;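 further: controls were vehicle for no effect and a reference inhibitor for full effect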
# Insulin prom inh cell count: further read-out of Insulin prom inh, marked with its call; normalized cell count, %; measured here: cell count, toxicity; reference of the scale not given here;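 cells exposed to compound for 48 h; stained nuclei by imaging scaled within each plate; lower means fewer cells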
# HSV replic up primary fold: further read-out of HSV replic up, marked with its call; fold increase; compound at 10 µM; measured here: primary screen fold increase 10 uM; tested in PC3 cells;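 GFP signal in the first replicate; 1 = infected wells without compound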
# The depositor's hits bear a star; i = inactive; ? = inconclusive; · = no result given; [ ] = remark or other dose.
# Screens by letter: A = Insulin prom inh; B = Insulin prom inh cell count; C = RGS16-Gao; D = HSV replic up; E = HSV replic up primary fold; F = GALR2 agonist; G = PKD1 inh
Cc1ccc(NC(=O)CN2C(=O)N/C(=C/c3cccn3-c3ccc(C(=O)O)cc3)C2=O)cc1
  A: 37 | B: 115 | C: 7 | D: i | E: 1.1 | F: -1.0 | G: -3
CC(=O)NC(c1ccco1)c1ccc2cccnc2c1O (stereo not given)
  A: -47 | B: 135 | C: 91 | D: i | E: 0.93 | F: -3.3 | G: 31
COc1ccc2cc(CCl)c(Cl)nc2c1
  A: · | B: · | C: 111 | D: i | E: 0.93 | F: · | G: -9
Cc1ccc2[nH]c(C)cc(=S)c2c1
  A: · | B: · | C: 99 | D: i | E: 0.96 | F: · | G: -6
COc1ccc(CCN2C(=O)C3CC=C(C)CC3C2=O)cc1OC (stereo not given)
  A: 29 | B: 116 | C: 105 | D: i | E: 1.1 | F: -2.3 | G: -11
O=C(Nc1cccnc1)c1noc2c1CCCCC2
  A: -20 | B: 112 | C: 103 | D: · | E: · | F: -0.2 | G: -8
Cc1cccc(C2=N/C(=C/c3cccs3)C(=O)O2)c1
  A: -67 | B: 85 | C: 110 | D: i | E: 0.98 | F: · | G: 2
COc1ccc(C(C(=O)NC2CCCCC2)N(C(=O)CCl)c2ccccc2Cl)cc1 (stereo not given)
  A: 18 | B: 109 | C: 103 | D: i | E: 0.65 | F: 0.0 | G: 9
CN1CCN(NC(=O)CC(C)(C)C)CC1
  A: · | B: · | C: 91 | D: i | E: 0.98 | F: · | G: 1
CCS(=O)(=O)c1c(S(=O)(=O)CC)c2ccccn2c1C(N)=O
  A: 0 | B: 98 | C: 102 | D: i | E: 1.1 | F: · | G: 3

# Given with two lines to a compound: part of the list above
# Each structure is followed by: Insulin prom inh	Insulin prom inh cell count	RGS16-Gao	HSV replic up	HSV replic up primary fold	GALR2 agonist	PKD1 inh
- Cc1ccc2[nH]c(C)cc(=S)c2c1
 : ·	·	99	i	0.96	·	-6
- O=C(Nc1cccnc1)c1noc2c1CCCCC2
 : -20	112	103	·	·	-0.2	-8
- COc1ccc(CCN2C(=O)C3CC=C(C)CC3C2=O)cc1OC (stereo not given)
 : 29	116	105	i	1.1	-2.3	-11
- CCS(=O)(=O)c1c(S(=O)(=O)CC)c2ccccn2c1C(N)=O
 : 0	98	102	i	1.1	·	3
- COc1ccc2cc(CCl)c(Cl)nc2c1
 : ·	·	111	i	0.93	·	-9
- COc1ccc(C(C(=O)NC2CCCCC2)N(C(=O)CCl)c2ccccc2Cl)cc1 (stereo not given)
 : 18	109	103	i	0.65	0.0	9
- CN1CCN(NC(=O)CC(C)(C)C)CC1
 : ·	·	91	i	0.98	·	1

# Later entries
# Screens by letter: A = Insulin prom inh; B = Insulin prom inh cell count; C = RGS16-Gao; D = HSV replic up; E = HSV replic up primary fold; F = GALR2 agonist; G = PKD1 inh
O=S(=O)(NCc1ccccc1)NCc1cccc(C(F)(F)F)c1
  A: · | B: · | C: 101 | D: i | E: 1 | F: · | G: -7
CCOc1cc(N2CCOCC2)c(OCC)cc1NC(=O)COC(=O)c1cc(C)oc1C
  A: · | B: · | C: 113 | D: i | E: 0.94 | F: -0.4 | G: -5
O=[N+]([O-])c1ccc(O)c(C2=NNC(c3ccccc3F)C2)c1 (stereo not given)
  A: · | B: · | C: 98 | D: i | E: 0.78 | F: · | G: ·
COc1ccccc1NC(=O)CSc1nnc(Cn2nnc(-c3ccccc3)n2)n1-c1ccccc1
  A: -14 | B: 91 | C: 108 | D: i | E: 0.95 | F: 3.1 | G: -1
CCOC(=O)C1CCCN(CCC(=O)Nc2ccc(C)c(C)c2)C1 (stereo not given)
  A: · | B: · | C: 102 | D: i | E: 1.1 | F: · | G: 6
NC(=O)COC(=O)c1ccccc1OCc1ccccc1Cl
  A: 54 | B: 103 | C: 101 | D: i | E: 1 | F: · | G: 6
CC(=O)c1cccc(NC(=S)NC(=O)c2cccc(Cl)c2)c1
  A: 17 | B: 121 | C: 97 | D: i | E: 1 | F: 0.1 | G: -13
Cc1ccccc1NC(=S)N(CCCN1CCOCC1)Cc1cccnc1
  A: · | B: · | C: 99 | D: i | E: 0.68 | F: · | G: -5
Clc1ccc(Cl)c(OCCCCNCc2ccccc2)c1
  A: 8 | B: 123 | C: 101 | D: i | E: 0.87 | F: -0.8 | G: -4
CCCN(CCC)C(C(=O)Nc1cccc(OC)c1)c1ccccc1 (stereo not given)
  A: 36 | B: 138 | C: 97 | D: i | E: 1 | F: 0.1 | G: 2
COc1ccc(SCC(=O)c2cc(C)c(OC(=S)N(C)C)c(C)c2)cc1
  A: · | B: · | C: 101 | D: i | E: 0.99 | F: -0.9 | G: -1
CC(C(=O)NC1=NCCS1)N1C(=O)c2ccccc2C1=O (stereo not given)
  A: · | B: · | C: 101 | D: i | E: 1.1 | F: 0.1 | G: 0
COC(=O)Cn1c(=NC(=O)c2ccc(Cl)s2)sc2cc(F)ccc21
  A: · | B: · | C: 93 | D: i | E: 0.96 | F: -1.4 | G: 8
O=[N+]([O-])c1ccc(Oc2ccc(-c3cnc4ccccc4n3)cc2[N+](=O)[O-])cc1
  A: -30 | B: 124 | C: 53 | D: i | E: 0.94 | F: -0.9 | G: -1
CCOc1ccccc1NC(=O)C1CC(=O)n2ncnc2N1 (stereo not given)
  A: -11 | B: 96 | C: 111 | D: i | E: 1 | F: -1.6 | G: -7
O=C(Nc1ccccc1)C1=C[C@H](c2coc3ccccc3c2=O)C[C@H](OCCCCO)O1
  A: · | B: · | C: 99 | D: i | E: 0.79 | F: · | G: 2
CCCCC(Sc1nc(N)c(NC(=O)c2ccc(OC)cc2)c(=O)[nH]1)C(=O)O (stereo not given)
  A: · | B: · | C: 101 | D: i | E: 0.87 | F: · | G: 1
CCCC(=O)Nc1ccc(-c2csc(NNC(C)=O)n2)cc1
  A: · | B: · | C: 103 | D: i | E: 1.1 | F: · | G: ·
O=C1c2ccccc2C2(c3ccccc3)NCCCN12 (stereo not given)
  A: · | B: · | C: 102 | D: i | E: 1 | F: · | G: 3
CCN(CC)c1ccc2cc(C(=O)O)c(=O)oc2c1
  A: -9 | B: 44 | C: 94 | D: i | E: 0.78 | F: 3.0 | G: -12

# Record cards (already shown).
# CCN(CC)c1ccc2cc(C(=O)O)c(=O)oc2c1 is entered as Insulin prom inh: -9; Insulin prom inh cell count: 44; RGS16-Gao: 94; HSV replic up: i; HSV replic up primary fold: 0.78; GALR2 agonist: 3.0; PKD1 inh: -12
# COc1ccc(SCC(=O)c2cc(C)c(OC(=S)N(C)C)c(C)c2)cc1 is entered as Insulin prom inh: ·; Insulin prom inh cell count: ·; RGS16-Gao: 101; HSV replic up: i; HSV replic up primary fold: 0.99; GALR2 agonist: -0.9; PKD1 inh: -1
# CC(C(=O)NC1=NCCS1)N1C(=O)c2ccccc2C1=O (stereo not given) is entered as Insulin prom inh: ·; Insulin prom inh cell count: ·; RGS16-Gao: 101; HSV replic up: i; HSV replic up primary fold: 1.1; GALR2 agonist: 0.1; PKD1 inh: 0

# Following part
# Screens by letter: A = Insulin prom inh; B = Insulin prom inh cell count; C = RGS16-Gao; D = HSV replic up; E = HSV replic up primary fold; F = GALR2 agonist; G = PKD1 inh
O=C(NCC1CCCO1)C(c1ccccn1)N(Cc1ccccc1Cl)C(=O)CN1C(=O)c2ccccc2S1(=O)=O (stereo not given)
  A: · | B: · | C: 96 | D: i | E: 0.91 | F: · | G: 5
O=C(CSc1nc(O)c(C(c2ccccc2)c2ccccc2)c(=O)[nH]1)N1CCOCC1
  A: · | B: · | C: 101 | D: i | E: 1 | F: · | G: -11
COc1ccc(N2CC(C(=O)O)CC2=O)cc1 (stereo not given)
  A: 14 | B: 82 | C: 104 | D: i | E: 0.81 | F: -0.9 | G: -7
COCCNC(=O)/C(C#N)=C/c1ccccc1Br
  A: 12 | B: 70 | C: 104 | D: i | E: 0.91 | F: · | G: -5
COc1ccc(C)cc1NC(=O)C(Sc1ccccc1)c1ccccc1 (stereo not given)
  A: -2 | B: 64 | C: 201 | D: i | E: 1.1 | F: -0.8 | G: -9
Cc1cccc(C2=N/C(=C\c3cccs3)C(=O)O2)c1
  A: · | B: · | C: 96 | D: i | E: 1.1 | F: · | G: -1
CCCC1C(c2ccccc2)C(C#N)(C#N)C2(C#N)CC1(N)NC2=O (stereo not given)
  A: · | B: · | C: 178*[activator] | D: i | E: 1.1 | F: -0.9 | G: -3
COc1cc2c(cc1NC(C)=O)CCCC2
  A: 14 | B: 162 | C: 94 | D: i | E: 0.98 | F: -0.6 | G: -4
COc1cc(C(=O)Nc2nc(N)n(-c3ccccc3)n2)cc(OC)c1OC
  A: · | B: · | C: 101 | D: i | E: 0.98 | F: -0.1 | G: -1
O/N=C1\CCCc2ccc3ccccc3c21
  A: · | B: · | C: 96 | D: i | E: 0.97 | F: · | G: ·
CCOCCCNC(=O)c1ccc(OC(C)=O)cc1
  A: -23 | B: 69 | C: 103 | D: i | E: 0.95 | F: 0.6 | G: 1
Clc1ccc(NCc2nncn2-c2ccccc2)cc1
  A: · | B: · | C: 97 | D: i | E: 0.82 | F: -1.0 | G: -6
CCOc1ccc(-c2nnn(CC(=O)c3ccc4c(c3)OCCO4)n2)cc1
  A: -9 | B: 135 | C: 117 | D: i | E: 1.2 | F: -0.7 | G: -11
O=C(CCc1nc2ccccc2s1)OCC(=O)c1ccc[nH]1
  A: · | B: · | C: 107 | D: i | E: 0.84 | F: · | G: -9
CCOC(=O)c1c(N)n(C2CC(C)(C)NC(C)(C)C2)c2nc3ccccc3nc12
  A: 0 | B: 188 | C: 99 | D: i | E: 0.85 | F: 1.3 | G: -2
Cc1ccc(C2CN(C)C3(C(=O)Nc4ccccc43)C23COc2ccccc2C3=O)cc1 (stereo not given)
  A: -20 | B: 116 | C: 95 | D: · | E: · | F: -0.6 | G: 4
O=C1NC2(CCCC2)N=C1c1ccc(F)cc1
  A: 13 | B: 109 | C: 104 | D: i | E: 1 | F: -2.1 | G: -3
CC1CCN(c2nc3ccccc3nc2C(C#N)C(=O)OC2CCCCC2)CC1 (stereo not given)
  A: 38 | B: 66 | C: 111 | D: ? | E: · | F: -0.2 | G: -4
Cc1cccc(C(=O)Oc2csc(=S)n2C(=O)c2cccc(C)c2)c1
  A: -27 | B: 197 | C: 97 | D: i | E: 0.96 | F: -2.4 | G: -7
Cc1cccc(NC(=S)Nn2cnnc2)c1C
  A: · | B: · | C: 102 | D: i | E: 0.91 | F: · | G: -7
O=C(CNCc1ccccc1)Nc1ccc(F)cc1
  A: · | B: · | C: 104 | D: i | E: 0.98 | F: · | G: -2
O=C(Nc1nc2ccccc2n1CCOc1ccc(Cl)cc1)c1ccco1
  A: · | B: · | C: 102 | D: i | E: 0.88 | F: -1.6 | G: -6
CC(=O)c1cccc(NC(=O)CN(c2ccccc2F)S(C)(=O)=O)c1
  A: -7 | B: 41 | C: 101 | D: i | E: 1.1 | F: -1.6 | G: -5
Cn1ccnc1SCC(=O)Nc1ccc(Cl)cn1
  A: · | B: · | C: 101 | D: i | E: 0.98 | F: · | G: -8
O=C(CSc1nnc2scc(-c3ccccc3)n12)NCc1ccc2c(c1)OCO2
  A: -21 | B: 129 | C: 105 | D: i | E: 0.95 | F: -4.5 | G: 0
Cc1cc(C(F)(F)F)nc(SCC(=O)c2cccc([N+](=O)[O-])c2)n1
  A: -18 | B: 174 | C: 110 | D: i | E: 0.82 | F: 1.2 | G: -8
CCOc1cc(/C=C(\C#N)C(=O)Nc2ccccc2[N+](=O)[O-])ccc1OCc1cccc2ccccc12
  A: 45 | B: 90 | C: 108 | D: i | E: 0.9 | F: · | G: 2
O=C1C2C3C=CC(C2C(=O)N1C1CCCCC1)C1C2C(=O)N(C4CCCCC4)C(=O)C2C31 (stereo not given)
  A: -5 | B: 73 | C: 96 | D: i | E: 0.96 | F: -1.2 | G: -19
Cc1cc(SCC(=O)c2cccs2)nc2ccccc12
  A: · | B: · | C: 103 | D: i | E: 1.2 | F: -0.5 | G: 0
Nc1nnc(SCC(=O)c2ccccc2)s1
  A: 0 | B: 135 | C: 103 | D: i | E: 0.98 | F: -1.8 | G: 7
Cc1cccc(OC(=O)CN2C(=O)C3C4CCC(C4)C3C2=O)c1C (stereo not given)
  A: 24 | B: 118 | C: 114 | D: i | E: 1 | F: 0.9 | G: -5
CC(C)(C)c1ccc(OCc2nnc(SCC(N)=O)n2N)cc1
  A: · | B: · | C: 102 | D: i | E: 1 | F: · | G: -2
Cc1c(NC(=O)C(C)OC(=O)c2cc(-c3cccc4ccccc34)nc3ccccc23)c(=O)n(-c2ccccc2)n1C (stereo not given)
  A: -46 | B: 84 | C: 102 | D: i | E: 1.3 | F: -0.5 | G: -1
CC1=CC2=C(OC1N(C)C)c1cccc3cccc(c13)C2=O (stereo not given)
  A: -12 | B: 84 | C: -9 | D: i | E: 1.1 | F: -0.5 | G: -5

# Screening results as filed in PubChem.
